Bioassay records deposited in PubChem BioAssay by National Center for Advancing Translational Sciences (NCATS).
GLA inh pH 4.5 = alpha-galactosidase A (human) inhibition, pH 4.5 | P06280 | 230,000 tested, under 10 active | AID 1467 | purified enzyme, 4-MU-alpha-Gal fluorescence, pH 4.5 | activity change, negative = inhibition, % at 105 µM; inconclusive = small, poorly fitted or top-dose-only inhibition, or a rising curve; inactive = flat fitted curve, though single readings scatter; no compound was filed as active;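 note: 0% = full activity with enzyme and -100% = basal without enzyme; dose as in the result columns while the protocol names 77 µM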
miR-21 FLuc = miR-21 reporter, rising signal; HeLa miR-21 FLuc reporter, luciferase, 48 h; Potency, µM (highest dose often 38.3 µM), for inactives: top-dose reporter change, positive = more light; 340,000 tested, under 10 active; AID 2288; active = well fitted rising curve with a large enough effect; inconclusive = small, poorly fitted or top-dose-only effect; inactive = no such curve, though single readings can be large or run the other way;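 note: % of control where 0% means no effect; miR-21 action dims this reporter so a rising signal means less miR-21 action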
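HeLa cells stably expressing CMV-driven firefly luciferase with a downstream miR-21 binding sequence, endogenously expressing miR-21, were treated with titrations (up to about 40uM final) for 48 hours at 37 degree Celsius. Luciferase luminescence was read after lysis.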
Rango complex inh = prevents formation of the Rango-importin beta complex. Potency, µM (highest dose often 92.2 µM), for inactives: at the top dose inhibition of complex formation. Rango CFP/YFP FRET sensor + importin beta, 45 min. AID 540263. 340,000 tested, 0.031% active; active = rising FRET ratio curve, often small or poorly fitted; inconclusive = mostly compound fluorescence or quenching in the first reads; inactive = flat curves in all reads;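 note: potency is the fitted concentration of half-maximal effect; 0% = DMSO wells and 100% = buffer wells lacking importin beta; nearly all actives have a fitted effect of over 15% in size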
Target sequence (Q14974 whole entry, looked up): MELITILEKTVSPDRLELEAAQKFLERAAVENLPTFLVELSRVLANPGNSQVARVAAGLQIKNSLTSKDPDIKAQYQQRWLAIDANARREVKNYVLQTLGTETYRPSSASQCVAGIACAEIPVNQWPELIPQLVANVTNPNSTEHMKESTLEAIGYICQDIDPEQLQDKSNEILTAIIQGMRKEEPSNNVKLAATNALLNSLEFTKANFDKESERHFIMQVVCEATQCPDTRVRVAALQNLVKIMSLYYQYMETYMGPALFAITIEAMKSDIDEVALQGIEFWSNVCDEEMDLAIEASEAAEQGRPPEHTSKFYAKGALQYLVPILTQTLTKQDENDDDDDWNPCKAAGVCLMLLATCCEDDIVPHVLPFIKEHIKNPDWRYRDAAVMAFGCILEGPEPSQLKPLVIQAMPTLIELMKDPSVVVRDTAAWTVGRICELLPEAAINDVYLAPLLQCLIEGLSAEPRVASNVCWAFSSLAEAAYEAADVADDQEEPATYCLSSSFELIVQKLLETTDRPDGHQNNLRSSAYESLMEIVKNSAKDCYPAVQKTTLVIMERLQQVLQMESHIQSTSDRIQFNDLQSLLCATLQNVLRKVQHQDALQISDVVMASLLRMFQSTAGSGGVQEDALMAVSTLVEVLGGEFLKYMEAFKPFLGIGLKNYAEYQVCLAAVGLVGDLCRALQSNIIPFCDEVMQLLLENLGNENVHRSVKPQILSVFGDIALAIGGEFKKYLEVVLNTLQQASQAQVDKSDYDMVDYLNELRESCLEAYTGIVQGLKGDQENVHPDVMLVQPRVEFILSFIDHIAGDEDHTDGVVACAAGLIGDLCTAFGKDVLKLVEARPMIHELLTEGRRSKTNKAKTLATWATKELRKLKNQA
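FRET biosensor (snurportin 1 IBB flanked by EYFP and cerulean), 50 nM, with compound 5 min, then 0.125 microM importin beta in PBS, 1 mM DTT, 0.02% Tween-20, 0.1% BSA. CFP/YFP ratio read after 45 min at room temperature; pre-read flags interference.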
Rango dissoc inh = inhibition of RanGTP-driven Rango-importin beta dissociation; AID 540253; 340,000 tested, 0.071% active; Biochemical FRET Rango-importin beta, RanGTP-induced dissociation; Potency, µM (series often up to 46.1 µM), inactives show top-dose activity change, negative = inhibition; O95149+P62826; active means falling FRET ratio curve, often poorly fitted, with flat reads before Ran was added; inconclusive means other falling curves, or compound fluorescence or quenching; inactive means flat or rising ratio curve;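 note: potency is the fitted concentration of half-maximal effect; % of control where 0% means no effect; nearly all actives have a fitted effect of over 45% in size; -100% = wells without RanGTP and RCC1; the record marks most hits as doubtful in a second field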
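Recombinant Rango FRET biosensor (EYFP–snurportin 1 IBB–cerulean CFP10) at 0.1 uM premixed with 0.25 uM importin beta in PBS, 1 mM DTT, 0.02% Tween-20, 0.1% BSA. Compound added 5 min; RanGTP-RCC1 (0.6 uM Ran, 2 mM GTP, 0.2 uM RCC1) then triggers release, read at 45 min.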
Starred values were filed as active, the others as inactive; ? = inconclusive; · = no result given; & = joins results of further samples. Some of the compounds tested; count on the stated rates, not on these rows.

SMILES,GLA inh pH 4.5,miR-21 FLuc,Rango complex inh,Rango dissoc inh
Cc1cc(=O)oc2cc(OC(C)C(=O)N3CCOCC3)ccc12 (stereo not drawn),-1,0%,3.5%,-7%
CCOC(=O)CSc1ncccn1,3,-3%,-1.5%,2%
Cc1cc(NNC(=O)Nc2cccc(Cl)c2)nc2c1c(C)nn2C,-1,20%,·,·
CC(=O)N1CCC(N(CCN2CCOCC2)C(=S)Nc2ccc(C)cc2C)CC1,12,-2%,1.0%,7%
COc1cccc(NC(=O)C/C(C)=N/NC(=O)c2ccccc2Cl)c1,-3,-4%,4.3%,14%
COC(=O)[C@]1(CC(C)C)N[C@H](c2ccc(SC3CCCCC3)c(OC)c2)[C@@H]2C(=O)N(C)C(=O)[C@@H]21,·,·,4.5%,-3%
N#CCCN1CCN(S(=O)(=O)c2ccc(C#N)cc2)CC1,-4,-1%,-2.1%,?
CCc1cccc(CC)c1NC(=O)CSc1nnc(C2CC2)n1C,·,3%,-1.7%,16%
NS(=O)(=O)c1ccc(NC(=O)COC(=O)Cc2ccc(Cl)cc2)cc1,6,-2%,3.7%,11%
O=c1[nH]c(NCCO)nc2c1C1(CCCC1)Cc1ccccc1-2,9,4%,0.5%,13%
CCC1CCCCN1C(=O)c1noc(C(C)C)c1[N+](=O)[O-] (stereo not drawn),-3,-4%,-0.2%,-3%
COC(=O)c1sc(-c2ccc(C(C)(C)C)cc2)cc1NC(=O)c1ccccc1C(=O)O,-2,-47%,0.2%,10%

Next section:
SMILES,GLA inh pH 4.5,miR-21 FLuc,Rango complex inh,Rango dissoc inh
COc1ccc(CN(C(=O)CN2C(=O)NC3(CCC(C)CC3)C2=O)C(C)Cc2cccs2)cc1 (stereo not drawn),·,·,-1.2%,-4%
Cc1ccc(NC(=S)/C(=C(\[O-])c2ccc(C)c([N+](=O)[O-])c2)[n+]2ccccc2)cc1C,-10,-46%,·,·
COC(=O)C1=C(C)C(c2ccc(OC)cc2OC)NC(=O)N1 (stereo not drawn),1,2%,2.3%,-13%
C=CCN(C(=O)c1cccc(C(F)(F)F)c1)C1(C(=O)Nc2ccccc2)CCN(C(C)C)CC1,9,-5%,-1.9%,9%
Cc1ccc(S(=O)(=O)Nc2nc(C)c(C(=O)NNS(=O)(=O)c3ccccc3)s2)cc1,-3,-1%,-3.9%,10%
COCCNC(=O)CN(Cc1ccccc1)C(=O)CCC(=O)Nc1nccs1,·,3%,-3.3%,-9%
Cc1cnc(C(=O)OCC(=O)NC2CCCC(C)C2C)cn1 (stereo not drawn),-7,-1%,3.4%,-8%
CC(C)NC(=S)N1CCN(S(C)(=O)=O)CC1,-13,-1%,-2.4%,3%
COc1ccc(NC(=O)CN(C)CC(=O)NCC(=O)Nc2ccc(F)cc2)cc1,·,·,6.5%,16%
CCOc1cc(C2/C(=C(\O)c3cc(C)ccc3C)C(=O)C(=O)N2CCN(C)C)ccc1O (stereo not drawn),2,1%,?,-21%
O=C(CCCc1ccccc1)NC1CCSC1=O (stereo not drawn),1,-13%,1.6%,-14%
O=C(Nc1ccccc1)Nc1cccc(-c2nnco2)c1,·,-9%,6.0%,1%

New compounds follow:
SMILES,GLA inh pH 4.5,miR-21 FLuc,Rango complex inh,Rango dissoc inh
Nc1cc(-c2ccc(Br)cc2)nn1S(=O)(=O)c1cccc2nsnc12,-1,0%,0.4%,9%
Cc1ccccc1C(=O)NC(C)C(c1cccs1)N1CCOCC1 (stereo not drawn),8,-1%,-2.6%,-8%
COc1cccc(CNC23CC4CC(CC(C4)C2)C3)c1OCc1ccccc1,-10,28%,0.3%,30%
CC(=O)C1=C(O)C(=O)N(c2ccc(O)cc2)C1c1ccc(F)cc1 (stereo not drawn),·,0%,4.2%,-3%
Nc1ccn([C@@H]2CS[C@H](CO)O2)c(=O)n1,-6&-3,1%,·,·
C=CCc1ccc(OCCCNC2CCCC2)c(OC)c1,·,·,2.5%,-3%
O=C(COC(=O)Cc1cccs1)Nc1cc(S(=O)(=O)N2CCOCC2)ccc1Cl,·,·,2.1%,-8%
Cc1ccc2c(cnn2C(=O)CCC(=O)NCc2cccc(Cl)c2)c1,·,-2%,?,6%
Cc1ccc(S(=O)(=O)NC(CC(C)C)C(=O)N2CCC(C)CC2)cc1 (stereo not drawn),-7,4%,1.2%,1%
CCOC(=O)N1CCN(C(=O)c2ccc(NS(=O)(=O)c3ccc(C)cc3)cc2)CC1,·,15%,-0.7%,-24%
COC(=O)c1c(C)c2c(C)cc3ccccn3c-2c1C(=O)OC,-1,2%,?,?
CCOc1cccc2cc(-c3cn4cc(C)ccc4n3)c(=O)oc12,5,-44%,-2.9%,-1%

Additional compounds follow.
SMILES,GLA inh pH 4.5,miR-21 FLuc,Rango complex inh,Rango dissoc inh
CN(CC(=O)Nc1c(Cl)cccc1Cl)C(=O)c1sccc1-c1ccccc1,·,·,-5.5%,8%
O=C1c2cccnc2C(=O)N1Cc1ccco1,2,-2%,-4.3%,7%
CC(C)(CNC(=O)c1cc2ccccc2o1)N1CCOCC1,5,-7%,-1.6%,-3%
Cc1ccc(S(=O)(=O)CCC(=O)Nc2ccccc2N2CCCC2)cc1,·,·,4.2%,8%
Cc1c(C)n(C)c2ccc(C(=O)NCc3cccs3)cc12,0,-39%,-0.3%,-6%
CCN(CC)S(=O)(=O)c1cccc(NC(=O)COC(=O)c2cncc(Br)c2)c1,·,·,0.1%,-15%
COc1cccc(-n2sc3c(c2=S)-c2cc(OC)ccc2NC3(C)C)c1,-7,15%,-1.0%,7%
CCc1ccc(OCc2nnc(SCC(=O)N3CCOCC3)o2)cc1,-9,9%,0.2%,24%
CNC(=O)C(NC(=O)Nc1ccc(C)cc1)C(C)(C)C (stereo not drawn),8,-8%,-2.9%,2%
COc1ccc(F)cc1C(=O)C1CCCN(C(=O)c2cccc(N(C)C)c2)C1 (stereo not drawn),-2,-8%,0.5%,-7%
CCOC(=O)c1cn(-c2ccc(F)c(F)c2)c2c(F)c(F)c(F)c(F)c2c1=O,3,-3%,·,·
COc1ccc(Cl)cc1NC(=O)CN(C)C(=O)c1ccc(OCc2ccccc2)c(OC)c1,·,·,-1.0%,2%

Of the compounds above, 6 contain a thiophene ring, fused or not:
SMILES,GLA inh pH 4.5,miR-21 FLuc,Rango complex inh,Rango dissoc inh
COC(=O)c1sc(-c2ccc(C(C)(C)C)cc2)cc1NC(=O)c1ccccc1C(=O)O,-2,-47%,0.2%,10%
COc1ccc(CN(C(=O)CN2C(=O)NC3(CCC(C)CC3)C2=O)C(C)Cc2cccs2)cc1 (stereo not drawn),·,·,-1.2%,-4%
Cc1ccccc1C(=O)NC(C)C(c1cccs1)N1CCOCC1 (stereo not drawn),8,-1%,-2.6%,-8%
O=C(COC(=O)Cc1cccs1)Nc1cc(S(=O)(=O)N2CCOCC2)ccc1Cl,·,·,2.1%,-8%
CN(CC(=O)Nc1c(Cl)cccc1Cl)C(=O)c1sccc1-c1ccccc1,·,·,-5.5%,8%
Cc1c(C)n(C)c2ccc(C(=O)NCc3cccs3)cc12,0,-39%,-0.3%,-6%

New compounds follow:
SMILES,GLA inh pH 4.5,miR-21 FLuc,Rango complex inh,Rango dissoc inh
CC(C)(C)OC(=O)N1Cc2ccccc2C[C@H]1C(=O)NCC(=O)NC1CCCCC1,·,0%,0.0%,9%
C=CCn1c(SCC(=O)NC2CCCC2)nnc1-c1cccnc1,·,2%,3.3%,-9%
COCCN1Cc2cccc(C(=O)Nc3ccc4c(c3)OCCO4)c2C1=O,0,-15%,-2.2%,-8%
Cc1cccc(NC(=O)CSc2nc3ccc(N4C(=O)c5ccccc5C4=O)cc3s2)c1C,-15,0%,2.7%,20%
O=C(NS(=O)(=O)N1CCOCC1)C1=C(N2CCCC2)COC1=O,·,·,1.1%,0%
Cc1ccc2c(C)c(C(=O)N(Cc3ccc(F)cc3)C3CCS(=O)(=O)C3)oc2c1 (stereo not drawn),·,5%,1.2%,1%
Nc1nnc2c(n1)CCCC2,5,-20%,2.3%,-21%
CC(C)C(NC(=O)CCNC(=O)c1ccccc1Cl)c1nc2ccccc2[nH]1 (stereo not drawn),·,·,0.1%,-2%
Cc1cccc(/C=C2\Sc3ccc(C(=O)N4CCC(C(N)=O)CC4)cc3N(C)C2=O)c1,·,10%,0.1%,1%
CCN(CC)C(C(=O)Nc1ccc(C(C)C)cc1)c1ccc2c(c1)OCO2 (stereo not drawn),-13,-8%,2.8%,32%
O=C(Nc1cccc(S(=O)(=O)NC2=NCCC2)c1)c1ccccc1OC(F)F,·,·,-4.3%,5%
CCc1ccc(OCC(=O)NC(=S)Nc2cccc(CO)c2)c(Br)c1,-6,-46%,-2.2%,9%

The list goes on.
SMILES,GLA inh pH 4.5,miR-21 FLuc,Rango complex inh,Rango dissoc inh
CC(=O)N1c2ccc(S(=O)(=O)N3CCC(C(=O)Nc4cccc(C(F)(F)F)c4)CC3)cc2CC1C (stereo not drawn),·,?,-1.4%,-9%
COCC(=O)N(CCc1ccc(OC)c(OC)c1)Cc1nc2ccccc2c(=O)[nH]1,-3,-3%,4.7%,20%
Cc1ccc(Cn2c(=O)cc(C(=O)O)c3ccccc32)cc1,0,-3%,3.3%,38%
CCOC(=O)c1ccc(NC(=O)CSc2nnc(Cc3cccs3)n2C)cc1,5,-1%,-0.4%,2%
CCCOc1ccc(CN(CCO)CCO)cc1[N+](=O)[O-],-9,-11%,-4.5%,-8%
CCOc1ccc(N(CC(=O)NC2CCCCC2)C(=O)CCC(=O)Nc2nc(C)cs2)cc1,·,-1%,-0.2%,7%
CC(C)c1ccc(NC(=O)C(c2ccc3c(c2)OCO3)N2CCC3(CC2)OCCO3)cc1 (stereo not drawn),-20,-5%,-2.0%,-8%
CCOC(=O)c1sc(-c2cccc([N+](=O)[O-])c2)cc1N,-4,-23%,-0.6%,0%
Cc1ccccc1-n1nnnc1SCCCC(=O)c1ccc(F)cc1,-3,-3%,-0.5%,4%
Cc1cccc(-n2c(=O)c3c4c(sc3n3c(=S)[nH]nc23)CCC4)c1,3,2%,12%,0%
COc1ccc(OC)c(CCNC(=O)CCCC(=O)n2ncc3cc(C)ccc32)c1,·,-1%,-0.1%,-11%
O=C(CSc1cn(Cc2ccccc2)c2ccccc12)Nc1nccs1,-9,-51%,3.4%,-7%

The list continues:
SMILES,GLA inh pH 4.5,miR-21 FLuc,Rango complex inh,Rango dissoc inh
COc1ccc(/C=C(\NC(=O)c2ccccc2)C(=O)NCc2ccco2)cc1,·,-15%,-5.4%,-8%
COc1cc(SC#N)ccc1N=Cc1c(C)[nH]n(-c2ccc(Cl)cc2)c1=O,-7,-1%,?,-5%
Cc1nn(Cc2cccc(C(=O)N3CCCC(C)C3)c2)c(C)c1[N+](=O)[O-] (stereo not drawn),10,-3%,1.1%,-1%
CCCc1nnc(NC(=O)CCC(=O)N2CCN(Cc3ccc(F)cc3)CC2)s1,·,-1%,-4.9%,5%
O=C(NC1CCCC1)C(c1cccnc1)N(Cc1ccccc1F)C(=O)c1csnn1 (stereo not drawn),·,-1%,-3.0%,-2%
CSc1ccc(S(=O)(=O)N(CC(=O)NN=C2CCN(C)CC2)c2ccc(C)cc2)cc1,-8,-13%,0.5%,1%
O=C(Nc1nc(-c2cc3ccccc3oc2=O)cs1)c1ccc(Br)o1,0,-19%,-2.2%,23%
C=CCNC(=S)N/N=C/c1ccc(OCc2ccccc2Cl)cc1,-1,-1%,7.1%,-1%
COc1ccc(CSC2=NCCN2)cc1Cl,4,-1%,4.5%,-4%
O=C(c1cccnc1)N1N=C2CCCCCC2C1(O)C(F)(F)F (stereo not drawn),-2,-1%,2.8%,-5%
Cc1cc(C(=O)N2CCCc3ccccc32)ccc1[N+](=O)[O-],·,-4%,1.6%,-19%
Cc1cccc(NC(=O)c2cnn(C)c2)c1C,-2,-1%,-2.3%,1%
